Mtb growth: M. tuberculosis H37Rv growth inhibitors, H37Rv strain (AID 1626). 220,000 tested, 0.95% active. M. tuberculosis H37Rv growth inhibition; higher % means a stronger effect. inhibition, % at 10 µM, or IC50 in µM where a hit was titrated;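 active = confirmed in a dose series; inconclusive = inhibition above 80% but not taken into the dose series; inactive = below 80% or under 30% at every dose of the series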;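 note: bacteria incubated seven days before Alamar blue readout; 0% = bacteria only wells and 100% = bacteria with antibiotic wells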
Mtb bLac sens: beta-lactam sensitization of Mtb H37Rv, H37Rv; M. tuberculosis H37Rv growth with meropenem, percent inhibition; hits of this screen are not shown here; inhibition, % at 25 µM; 330,000 tested, 0.27% active;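 active = about 74% or more and at least 40 points above the plate without the antibiotic, then above 30% in a dose series; inconclusive = first-round hits that could not be retested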;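 note: growth measured after seven days incubation then overnight dye step; 0% = bacteria only wells and 100% = bacteria with antibiotic; twin plates without the antibiotic show which effects depend on it; some results filed as inactive read as strong as hits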
Arbovirus anti: antivirals against arbovirus infection, primary screen, cell-based, full library, 10K replicate subset; AID 1251, 2008; inhibition, % at 10 µM; arbovirus infection cell-based antiviral screen; 200,000 tested, 0.37% active;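 active = inhibition from about 30%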;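 note: bluetongue infection of BSR cells; cell survival read as ATP light after 72 h; 0% = infected wells without compound and 100% = uninfected wells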
RecA intein inh: Mtb RecA intein splicing inhibitors, primary screen, biochemical, fluorescence, HTS | inhibition, %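 (about 9 µM by stock and volumes)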 | Protein RecA (Mycobacterium tuberculosis (strain ATCC 25618 / H37Rv)), P9WHJ3 | cell-free RecA intein splicing | 290,000 tested, 0.75% active; in the data active = inhibition above about 30%; inconclusive = no clear call, values can overlap the other calls;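 note: 0% = vehicle wells and 100% = reference inhibitor control wells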
Target sequence (P9WHJ3 whole entry, looked up): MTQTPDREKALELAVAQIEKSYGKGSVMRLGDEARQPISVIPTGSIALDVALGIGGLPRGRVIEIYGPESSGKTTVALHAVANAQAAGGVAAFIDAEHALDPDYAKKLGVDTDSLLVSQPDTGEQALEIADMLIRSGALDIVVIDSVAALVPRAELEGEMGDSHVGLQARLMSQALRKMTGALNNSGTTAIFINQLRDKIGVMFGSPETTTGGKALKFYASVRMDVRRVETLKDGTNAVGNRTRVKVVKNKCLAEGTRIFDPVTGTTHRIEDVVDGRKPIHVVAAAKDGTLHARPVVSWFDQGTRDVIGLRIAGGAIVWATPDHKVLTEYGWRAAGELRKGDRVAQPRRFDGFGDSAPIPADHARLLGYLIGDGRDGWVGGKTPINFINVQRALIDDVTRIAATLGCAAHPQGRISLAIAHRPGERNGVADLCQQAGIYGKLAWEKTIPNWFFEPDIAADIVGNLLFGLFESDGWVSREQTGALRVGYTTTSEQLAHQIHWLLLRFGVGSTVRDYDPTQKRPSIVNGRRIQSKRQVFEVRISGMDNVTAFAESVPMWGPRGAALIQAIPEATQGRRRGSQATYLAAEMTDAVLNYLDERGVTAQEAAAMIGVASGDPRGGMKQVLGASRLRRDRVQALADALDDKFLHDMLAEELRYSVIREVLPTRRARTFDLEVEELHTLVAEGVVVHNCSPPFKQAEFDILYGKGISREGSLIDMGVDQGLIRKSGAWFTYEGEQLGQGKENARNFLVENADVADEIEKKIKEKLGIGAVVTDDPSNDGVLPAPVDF
YopH PTP inh: YopH tyrosine phosphatase inhibitors, primary screen, biochemical, fluorescence Ex485/Em525; YopH tyrosine phosphatase [Yersinia enterocolitica]; inhibition, %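 (about 10 µM by stock and volumes)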; 140,000 tested, 0.16% active;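 active = inhibition of 50% or more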;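 note: controls were vehicle for no effect and minimum signal wells for full effect; inactives centre near -20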
Arbovirus anti repeat: recorded beside Arbovirus anti, whose call it bears; inhibition, %; measured here: 10K subset replicate screen; many hits read low in the repeat;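 first of two repeat runs on a subset; 0% = infected and 100% = uninfected wells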
* marks the source's active call; other numbers are inactive results; u = inconclusive; x = no result given. An excerpt, so the mix of outcomes need not match the whole.

Start of the data: the first two compounds (preview)
SMILES	Mtb growth	Mtb bLac sens	Arbovirus anti	RecA intein inh	YopH PTP inh	others
COc1cc2nc(N(CCCN(C)C)C(=O)c3ccc(S(=O)(=O)N4CCc5ccccc54)cc3)sc2cc1OC	x	-7	x	0.8	x
CCOc1ccc(C(=O)NC(=S)Nc2cccnc2)cc1	3%	4	-1	0.4	-16

The whole of this part, repeating the preview:
SMILES	Mtb growth	Mtb bLac sens	Arbovirus anti	RecA intein inh	YopH PTP inh	others
COc1cc2nc(N(CCCN(C)C)C(=O)c3ccc(S(=O)(=O)N4CCc5ccccc54)cc3)sc2cc1OC	x	-7	x	0.8	x
CCOc1ccc(C(=O)NC(=S)Nc2cccnc2)cc1	3%	4	-1	0.4	-16
COC(=O)c1cc(S(=O)(=O)NCCc2sccc2C)c[nH]1	x	5	x	0.4	x
Cc1oc(-c2ccccc2Cl)nc1CS(=O)(=O)CC(=O)NC(C)c1ccccc1 (centres undefined)	x	3	x	3.0	x
Cc1ccc(Cc2c(C)nc3nc(SCC(=O)NCCCN4CCCC4)nn3c2C)cc1	x	5	x	1.3	x
CCOc1ccc(NC(=O)c2cnc3scc(C)n3c2=O)cc1	4%	-7	4	-4.2	13
CCCNC(=O)CSc1nc2ccc(OCC)cc2s1	3%	-3	4	3.0	x
CCOC(=O)/C(=N\Nc1cccc(C(F)(F)F)c1)N(CCOC)CCOC	42%	82	-23	1.7	-13
COc1ccc(C(=O)CCC(=O)O)c(C)c1	-6%	-5	6	0.6	-21
Cc1ccc(C)c2[nH]c(=O)c(CN(CCCN(C)C)C(=O)NCc3ccccc3)cc12	-6%	-7	0	-0.6	x
CCc1ccc(C2=NNC(=Nc3cccc(S(=O)(=O)N(C)C)c3)SC2)cc1	12%	-1	-27	6.6	5
Cc1[nH]c2ccc3c(ncn3CCC#N)c2c1C	-4%	2	-6	-2.4	-1

Continued, overlapping the part above by 3 compounds.
SMILES	Mtb growth	Mtb bLac sens	Arbovirus anti	RecA intein inh	YopH PTP inh	others
Cc1ccc(C)c2[nH]c(=O)c(CN(CCCN(C)C)C(=O)NCc3ccccc3)cc12	-6%	-7	0	-0.6	x
CCc1ccc(C2=NNC(=Nc3cccc(S(=O)(=O)N(C)C)c3)SC2)cc1	12%	-1	-27	6.6	5
Cc1[nH]c2ccc3c(ncn3CCC#N)c2c1C	-4%	2	-6	-2.4	-1
O=S(=O)(Nc1ccc2c(c1)nc1n2CCN(Cc2ccccc2)C1)c1ccc(Cl)cc1	3%	-20	4	17	-26
CCC(CC)c1nnc(NC(=O)C2CC(=O)N(CCc3ccc(OC)c(OC)c3)C2)s1 (centres undefined)	x	-3	x	0.9	x
O=C(/C=C/c1ccccc1)C1=C(O)C(=O)N(CCO)C1c1cccc([N+](=O)[O-])c1 (centres undefined)	-22%	-10	x	1.7	x
Cc1cccc(C(=O)Nc2sc3c(c2C(=O)O)CCCC3)c1	x	13	x	-2.4	x
COCC(=O)N1CCC(Oc2ccc(C(=O)NCCCC3CCCC3)cc2)CC1	x	-4	x	4.0	x
Cc1ccc(NC2=C(CC(=O)O)C(c3ccccc3)N(c3ccc(C)cc3)C2=O)cc1 (centres undefined)	11%	8	-10	2.2	0
CCOc1ccccc1CNS(=O)(=O)c1cnc[nH]1	x	-2	x	-0.9	x
CCOc1ccc(N=Cc2c(O)c3ccccc3oc2=O)cc1	u	x	-10	-13	-21
CCOC(=O)c1csc(NC(=O)Nc2cccc(Cl)c2)n1	7%	1	11	4.0	-32
CC(CN1CCCCC1)C(=O)NN (centres undefined)	-8%	-4	3	0.7	x
CCNC(=O)/C(C#N)=C/c1c(N2CCCCCC2)nc2c(C)cccn2c1=O	x	-1	x	2.9	x
Cc1ccc(NC(=O)/C(C#N)=C/c2ccsc2)c(C)c1	0%	-1	2	14	-21
COc1ccc(OC)c(C2=Nn3c(nnc3-c3ccco3)SC2)c1	-2%	-4	-8	-2.2	-39
COc1ccc(/C=C/C(=O)c2ccc(O)cc2)cc1	8%	3	-1	0.9	x
CCN1CN=C(NS(=O)(=O)c2ccc(C)cc2)NC1	-5%	9	3	-0.7	-15
CCOCC(=O)Nc1ccc(C)c(Cl)c1	77%	96	7	-4.8	-25
Cc1ccccc1NC(=O)CC1C(=O)NCCN1C(=O)c1cccc(Cl)c1 (centres undefined)	x	-10	x	-1.5	x
CCc1c(C)nc2ccc(Br)cc2c1Cl	8%	-2	4	1.1	-28
C(=N\Nc1nc(N2CCCC2)nc(N2CCCC2)n1)/c1ccccc1OCc1ccccc1	0%	-1	20	-0.7	x
Cn1cccc1C(=O)OCc1csc(-c2ccccc2)n1	0%	4	3	4.6	-33
Cc1ccc(-c2nc(CS(=O)CC(=O)NC3CCCC3)c(C)o2)cc1 (centres undefined)	2%	-3	9	2.8	x	Arbovirus anti repeat=-1
CCOC(=O)C1=C2SCCN2C(=O)C(C#N)C1(C)C (centres undefined)	-4%	-2	12	-0.1	-30
COc1ccc(N2CCN(C(c3ccc4ncccc4c3)c3nnnn3C(C)(C)C)CC2)cc1 (centres undefined)	5%	4	20	-0.4	x
O=C(CSc1c2c(nc3ccc(Cl)cc13)CCCC2)NCCCN1CCOCC1	6%	-7	7	-6.6	x
COC(=O)c1ccc2nccnc2c1	-3%	-4	x	-1.8	x
CC(NC(=O)C12CC3CC(CC(C3)C1)C2)C(=O)NCCN(C)C (centres undefined)	2%	1	1	0.6	-35
CCCCOc1ccc(C(C)NC(=O)C2CCCN(S(=O)(=O)CC)C2)cc1 (centres undefined)	-3%	-5	2	-1.0	-12
Cc1ccc(NC(=S)Nc2ccc(F)cc2)cc1	x	-5	x	1.4	x
O=C(COC(=O)/C=C/c1ccc(S(=O)(=O)N2CCOCC2)cc1)NCc1ccc(F)cc1	-5%	3	-9	-3.3	x
Cc1ccc(CN2CCN(C(=O)CC(C)C)CC2)cc1	x	9	x	-1.6	x
CSc1nc(N)c(C(=O)Nc2ccc([N+](=O)[O-])cc2)s1	2%	4	x	2.8	x
COc1ccccc1C(=O)NC(CCSC)C(=O)NNC(=O)c1ccncc1 (centres undefined)	x	-7	x	-1.3	x
O=C1C2ON(c3ccc(Br)cc3)C(c3cccnc3)C2C(=O)N1C1CCCCC1 (centres undefined)	x	81	-14	-2.4	-110
CN1CC(=O)N(CC(=O)N2N=C(c3ccc(Cl)cc3)CC2c2ccco2)C1=O (centres undefined)	1%	0	10	5.1	x
Cc1ccc(N2CCN(C(=O)N3CCOCC3)CC2)c(C)c1	-5%	6	13	-1.6	x
COc1ccccc1NS(=O)(=O)c1ccc(N/N=C(\C)C(C)C)c([N+](=O)[O-])c1	11%	7	-11	1.6	-29
CC(=O)OC1CC[C@]2(C#N)[C@H]3CC[C@]4(C)[C@H](C5C=CC(=O)O5)CCC4(O)C3CCC2(O)C1 (some centres undefined)	x	-7	x	-0.7	x
Cn1c(COc2ccccc2)nnc1SCC(=O)Nc1ccc(S(N)(=O)=O)cc1	-3%	1	8	-1.1	-58
CCCCN(C(=S)NC(=O)c1cc(OC)c(OC)c(OC)c1)c1c(N)n(Cc2ccccc2)c(=O)[nH]c1=O	3%	-6	6	-1.6	-15
COc1cc([N+](=O)[O-])ccc1NC(=O)NNC(=O)CCc1ccccc1	x	7	x	0.1	x
O=C(c1cccc(Cl)c1)N1CCCC(C(=O)N2CCCCCC2)C1 (centres undefined)	-5%	-10	0	-0.4	-45
COc1ccc(S(=O)(=O)N2CCC(C(=O)N3CCc4ccccc4C3)CC2)cc1	1%	-12	4	0.4	-5	Arbovirus anti repeat=-5
O=C1/C(=C\c2ccc(Br)o2)SC(=Nc2ccccc2)N1c1ccccc1	-7%	-6	-21	0.1	-23
Cc1cc(S(=O)(=O)NCC(=O)O)ccc1F	0%	-1	4	-0.7	5
Cc1cc2ccccc2c(=O)[nH]1	-6%	-5	-4	-1.7	-13
O=C(O)C1C2CCCCC2=C2CCCCC2C1C(=O)c1ccccc1 (centres undefined)	0%	-8	x	-0.2	x
CCCCOc1ccc(OC(=O)Nc2cc(Cl)ccc2OC)cc1	72%	72	x	-3.0	x
Cc1ccc(C2CC(c3ccccc3)=NN2C(=O)CSc2nnc(-c3ccncc3)n2C)o1 (centres undefined)	7%	2	0	5.5	0
O=C(C1CCN(C2CCN(Cc3ccsc3)CC2)CC1)N1CCOCC1	x	-17	x	0.7	x
c1ccc(-c2nnc3sc(-c4ccncc4)nn23)cc1	-3%	7	-1	-0.4	1
Cc1ccc(S(=O)(=O)N2CC(C(=O)O)Oc3ccccc32)cc1 (centres undefined)	x	-1	x	-1.8	x
Cc1csc(CN(C)C(=O)CC2C(=O)NCCN2Cc2ccc(Cl)c(F)c2)n1 (centres undefined)	x	2	x	2.6	x
CS(=O)(=O)N1CCCC(C(=O)Nc2c(F)cccc2F)C1 (centres undefined)	x	-5	x	6.9	x
COc1cc(/C=C/C(=O)C2C(=O)C=C(C)OC2=O)cc(OC)c1O (centres undefined)	1%	34	-3	-8.0	-22
CC1CCCN(S(=O)(=O)c2csc(C(N)=O)c2)C1 (centres undefined)	x	6	x	4.7	x
COC(=O)c1cc(S(=O)(=O)N2CCCCCC2)c[nH]1	x	-1	x	-1.4	x
O=C(COc1ccc(S(=O)(=O)N2CCOCC2)cc1Cl)NCc1ccccn1	x	-8	x	-2.3	x
O=C(C1CCN(S(=O)(=O)c2cccc3cccnc23)CC1)N1CCN(c2ccccc2)CC1	-5%	-2	-6	x	-19	Arbovirus anti repeat=-4
Cc1cc(=O)[nH]c(SCC(=O)Nc2nc(-c3ccccc3)cs2)n1	x	-1	8	4.0	-50
CCCCNC(=S)NNC(=O)c1nn(C)cc1Cl	-4%	-3	6	-0.2	-5
Continued.
SMILES	Mtb growth	Mtb bLac sens	Arbovirus anti	RecA intein inh	YopH PTP inh	others
CCn1c(C)cc(/C=C2/SC(=O)N(CC(=O)N3CCCC3)C2=O)c1C	x	-1	x	-0.2	x
COC(=O)c1ccc(N=NNc2ccccc2)cc1	u	92	-13	0.0	-23
COc1ccc(NC(=O)CSc2nnc(Cc3ccccc3)o2)c(OC)c1	5%	-1	13	0.1	-20
CCCn1c(=N)c(C#N)cc2c(=O)n3cccc(C)c3nc21	-1%	0	-1	-121	x
CC(C)N(c1ccccc1)c1ncnc(NCCC(=O)O)c1[N+](=O)[O-]	-10%	8	0	3.4	-45
Cc1ccc2c(c1)C1(OCCO1)C(=O)N2	-6%	3	1	1.1	-6
Cn1c(CCc2ccc(N)cc2)nc2ccccc21	0%	6	-3	2.4	x
COc1ccccc1Nc1ccc([N+](=O)[O-])cn1	-5%	-2	-14	x	x
CCCN(C(=O)CCSc1ccc(F)cc1)c1c(N)n(Cc2ccccc2)c(=O)[nH]c1=O	x	-4	x	3.3	x
COC(=O)c1cc(-c2ccc(Br)cc2)c2c(=O)[nH]c(=O)n(C)c2n1	x	3	x	-1.7	x
CS(=O)(=O)c1ccc2nc(NC(=O)c3ccc(N4C(=O)CCC4=O)cc3)sc2c1	-12%	0	x	1.1	x
CCOC(=O)C1=C(N)Oc2ccc3ccccc3c2C1c1ccc(O)cc1 (centres undefined)	x	-4	x	21	x
CN1/C(=C\C(=O)c2cccnc2Cl)C(C)(C)c2ccccc21	1%	5	-10	-0.4	-21
Cc1ccc(NC(=O)/C(=C/c2ccco2)c2ccccc2)c(C)c1	8%	38	-3	1.0	-20
COc1ccccc1OCC(=O)Nc1ccc2c(c1)OCO2	x	-3	x	4.2	x
CCc1ccc(CNC(=O)c2ccc(NC(=O)C3=CSCCO3)cc2)cc1	x	54	x	-0.5	x
Cc1cc(NC(=O)NC2CC(=O)N(c3ccc4c(c3)OCCO4)C2)no1 (centres undefined)	9%	0	7	-0.1	x
Cc1ccc(C)c(NC(=O)c2cc(S(=O)(=O)N3CCOCC3)cn2C)c1	x	-5	x	-0.4	x
CCn1nnnc1SCC(=O)Nc1ccc2c(c1)OCO2	6%	10	-3	0.2	-13
C=CCn1c[n+](CC(=O)c2ccc(Br)s2)c2ccccc21	5%	-4	-4	0.5	x
COc1cccc(-c2nn(-c3ccccc3)cc2CNC(C)Cn2cncn2)c1 (centres undefined)	-2%	-5	-4	0.3	x
CCOC(=O)C1CCN(c2ccc([N+](=O)[O-])cc2S(=O)(=O)N2CCOCC2)CC1	x	-5	x	-0.5	x

Fetched one by one from above:
SMILES	Mtb growth	Mtb bLac sens	Arbovirus anti	RecA intein inh	YopH PTP inh	others
COc1ccccc1OCC(=O)Nc1ccc2c(c1)OCO2	x	-3	x	4.2	x
Cc1ccc(NC(=O)/C(=C/c2ccco2)c2ccccc2)c(C)c1	8%	38	-3	1.0	-20
COc1cccc(-c2nn(-c3ccccc3)cc2CNC(C)Cn2cncn2)c1 (centres undefined)	-2%	-5	-4	0.3	x
